# Arbovirus inh = antivirals against arbovirus infection, primary screen, cell-based, full library, 10K replicate subset; arbovirus infection cell-based antiviral screen; inhibition, % at 10 µM; actives 0.37% (n = 200,000); AID 1251, 2008;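 active = inhibition from about 30%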;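 also: bluetongue infection of BSR cells; cell survival read as ATP light after 72 h; 0% = infected wells without compound and 100% = uninfected wells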
# Mtb betalactam = beta-lactam sensitization of Mtb H37Rv, H37Rv. M. tuberculosis H37Rv growth with meropenem, percent inhibition; hits of this screen are not shown here. actives 0.27% (n = 330,000). AID 434955, 2010. inhibition, % at 25 µM;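 active = about 74% or more and at least 40 points above the plate without the antibiotic, then above 30% in a dose series; inconclusive = first-round hits that could not be retested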;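 also: growth measured after seven days incubation then overnight dye step; 0% = bacteria only wells and 100% = bacteria with antibiotic; twin plates without the antibiotic show which effects depend on it; some results filed as inactive read as strong as hits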
# Mtb H37Rv = M. tuberculosis H37Rv growth inhibitors, H37Rv strain (AID 1626); inhibition, % at 10 µM, or IC50 in µM where a hit was titrated; M. tuberculosis H37Rv growth inhibition; higher % means a stronger effect; actives 0.95% (n = 220,000);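 active = confirmed in a dose series; inconclusive = inhibition above 80% but not taken into the dose series; inactive = below 80% or under 30% at every dose of the series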;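 also: bacteria incubated seven days before Alamar blue readout; 0% = bacteria only wells and 100% = bacteria with antibiotic wells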
# RecA intein inh = Mtb RecA intein splicing inhibitors, primary screen, biochemical, fluorescence, HTS | actives 0.75% (n = 290,000) | AID 2221, 2009 | Protein RecA (Mycobacterium tuberculosis (strain ATCC 25618 / H37Rv)), P9WHJ3 | inhibition, %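 (about 9 µM by stock and volumes)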 | cell-free RecA intein splicing; in the data active = inhibition above about 30%; inconclusive = no clear call, values can overlap the other calls;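 also: 0% = vehicle wells and 100% = reference inhibitor control wells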
# Target sequence (P9WHJ3 whole entry, looked up): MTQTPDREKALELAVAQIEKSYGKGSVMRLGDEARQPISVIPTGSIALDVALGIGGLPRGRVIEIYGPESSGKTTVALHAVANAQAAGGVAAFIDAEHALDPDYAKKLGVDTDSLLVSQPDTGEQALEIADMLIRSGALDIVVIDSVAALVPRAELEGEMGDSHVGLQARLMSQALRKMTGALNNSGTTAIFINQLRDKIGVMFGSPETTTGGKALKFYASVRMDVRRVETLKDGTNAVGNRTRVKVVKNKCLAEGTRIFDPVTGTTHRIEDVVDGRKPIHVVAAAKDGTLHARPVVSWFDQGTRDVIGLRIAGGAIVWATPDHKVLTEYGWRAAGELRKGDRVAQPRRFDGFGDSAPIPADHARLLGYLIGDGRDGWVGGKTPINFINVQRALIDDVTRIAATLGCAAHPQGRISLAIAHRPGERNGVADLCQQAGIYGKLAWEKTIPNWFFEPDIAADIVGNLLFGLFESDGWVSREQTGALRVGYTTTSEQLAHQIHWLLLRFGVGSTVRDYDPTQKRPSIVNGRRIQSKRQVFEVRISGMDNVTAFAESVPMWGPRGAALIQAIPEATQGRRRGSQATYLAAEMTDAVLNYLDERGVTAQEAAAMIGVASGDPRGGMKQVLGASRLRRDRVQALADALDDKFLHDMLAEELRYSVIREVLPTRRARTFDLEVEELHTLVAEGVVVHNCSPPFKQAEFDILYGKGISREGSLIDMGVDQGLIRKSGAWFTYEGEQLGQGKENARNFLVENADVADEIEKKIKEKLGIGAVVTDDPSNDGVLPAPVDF
# YopH PTP inh = YopH tyrosine phosphatase inhibitors, primary screen, biochemical, fluorescence Ex485/Em525; YopH tyrosine phosphatase [Yersinia enterocolitica]; inhibition, %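 (about 10 µM by stock and volumes)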; actives 0.16% (n = 140,000);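 active = inhibition of 50% or more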;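 also: controls were vehicle for no effect and minimum signal wells for full effect; inactives centre near -20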
# Arbovirus inh repeat = also measured in Arbovirus inh; calls as there; inhibition, %; measured here: 10K subset replicate screen; many hits read low in the repeat;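 first of two repeat runs on a subset; 0% = infected and 100% = uninfected wells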
# * marks the source's active call; other numbers are inactive results; u = inconclusive; x = not tested or not shown. A portion of the library; rates above refer to the full screens.
SMILES,Arbovirus inh,Mtb betalactam,Mtb H37Rv,RecA intein inh,YopH PTP inh,others
CCN(CC(=O)Nc1c(F)cccc1F)C(=O)c1ccc(Sc2nncn2C)c([N+](=O)[O-])c1,x,-6,x,0.1,x,
C/C(=N\NC(=O)c1cccnc1)c1ccc(-c2ccccc2)cc1,x,3,-14%,-0.2,x,
COCCCNC(=O)c1cc(=O)n(Cc2ccc(Cl)cc2)c2ccccc12,12,-6,1%,-4.1,x,
O=c1c2[nH]c3ccc(F)cc3c2ncn1C1CCCCC1,-6,3,0%,0.2,3,
C[C@@H]1NC(=O)/C(=C\c2ccccc2Br)NC1=O,x,-5,x,-2.1,x,
Nc1nn(-c2ccccc2)c(N)c1N=Nc1ccc2c(c1)OCO2,-27,61,10%,7.8,-24,
COC(=O)C1=C(c2ccccc2)C[C@@H]2CC[C@H]1N2C(=O)N1CCC(C)CC1,x,-5,2%,1.7,x,
O=C(Nc1ccccc1C(=O)O)c1cccc(NC(=O)c2ccc(Br)o2)c1,32*,-14,-1%,0.8,-29,
Oc1ccccc1C1N=C(c2ccccc2)NC(c2ccccc2)=N1,1,0,-3%,-1.3,-9,
N#Cc1c(NC(=O)CSc2nc3ccccc3s2)sc2c1CCCC2,1,5,6%,-2.6,9,
CCCCNC(=O)Nc1c(C)cc(SC#N)cc1C,-9,-7,6%,0.0,x,
Cc1ccccc1C(=O)NC1CCS(=O)(=O)C1 (centres undefined),1,-1,x,-4.5,7,
CC(=O)c1ccc(NC(=O)c2ccn[nH]2)cc1,5,-8,-8%,4.2,-37,
COc1ccc(C2=NC(C(F)(F)F)(C(F)(F)F)c3c(n(C)c(=O)n(C)c3=O)N2)cc1,0,1,0%,x,-13,
CC(=O)Nc1ccc(NC(=O)c2cc(-n3cnnc3)ccc2Cl)cc1,3,0,0%,0.9,x,
COC(CN(C)C(=O)C1CCCN(S(=O)(=O)c2ccc3c(c2)oc(=O)n3C)C1)OC (centres undefined),x,-6,x,-5.4,x,
C=CCn1cc(C(=O)NCC2CCCO2)c(=O)c2cc(S(=O)(=O)N3CCCCCC3)ccc21 (centres undefined),-4,8,-6%,x,-19,
CC(C)Nc1nc(NC(C)C)nc(N(C)n2cnnc2)n1,-3,3,2%,3.4,-18,
O=C(Cn1cnc(S(=O)(=O)N2CCCC2)c1)Nc1cccc(Br)c1,x,5,x,0.6,x,
O=C(CCNc1n[nH]c(=O)[nH]c1=O)N/N=C/c1ccc(Cl)cc1,3,-2,3%,2.5,x,
COc1ccc(C(=O)Nc2ccc(O)c3ccccc23)cc1OC,x,-7,x,98*,x,
Nc1nnc(CCCCc2cccs2)o1,7,x,-2%,x,-53,
CC(=O)N1N=C(c2ccc3ccccc3c2)OC12CCCC2,x,1,12%,9.1,x,
Cc1ccc(-c2cc(C(=O)N3CCCc4ccccc43)no2)cc1,7,76,42%,x,x,
CC/C(=N\NC(=S)Nc1cccc(C)c1)c1ccccc1,1,-2,u,16,x,
Cc1cc(NS(=O)(=O)c2ccc(NC(=O)COc3ccc(Cl)cc3Cl)cc2)no1,x,-14,x,-0.6,x,
COc1cc(CCCN2C(=S)NC[C@@H]2Cc2ccccc2)cc(OC)c1OC,4,-3,-4%,-1.7,x,
Cc1nc2ccccn2c(=O)c1NC(=O)c1cccs1,x,-6,x,-0.8,x,
Cc1noc(C)c1C(=O)OCC(=O)c1cc(C)n(Cc2ccccc2Cl)c1C,-9,9,-4%,17,-2,
O=C(NNC(=O)c1ccc2ccccc2c1O)Nc1ccc(F)cc1,x,-13,x,-2.8,x,
CCN(CC)S(=O)(=O)c1ccc(/C=C/C(=O)OCC(=O)Nc2ccc(C(N)=O)cc2)cc1,-3,-3,-4%,-11,x,
Cc1ccc(S(=O)(=O)Nc2ccc3ncccc3c2)cc1,12,-5,8%,-0.5,-36,
Cc1[nH]c2ccc(OCc3ccccc3)cc2c1CCN1C(=O)OC(C)(C)C1(C)O (centres undefined),-3,-4,1%,0.4,-32,
C=CC(=O)NCCCc1cc(C(C)(C)C)c(O)c(C(C)(C)C)c1,-8,1,-1%,10,-23,
Cc1ccnc(NS(=O)(=O)c2ccc(NC(=O)c3snnc3C)cc2)n1,x,1,x,-0.8,x,
N#C/C(=C\c1cc2c(cc1Br)OCO2)C(=O)NCC1CCCO1 (centres undefined),x,3,-1%,1.7,x,
Cc1c(C#N)c(N)nc2c3c(sc12)NC(=O)CC3c1ccccc1 (centres undefined),-10,6,0%,-2.1,-13,
CC(NC(=O)Cn1c(NCCO)nc2ccccc21)C1CC2CCC1C2 (centres undefined),21,-2,0%,-4.7,x,
CC1(C)C[C@@H]2C[C@@](C)(CN2C(=O)c2ccccc2)C1,x,4,-5%,0.4,x,
CCOc1ccc(CONS(=O)(=O)c2ccc(NC(C)=O)cc2)cc1Cl,4,8,13%,-0.9,-6,

# 16 entries from above, arranged by formula weight, rising.
SMILES,Arbovirus inh,Mtb betalactam,Mtb H37Rv,RecA intein inh,YopH PTP inh,others
Nc1nnc(CCCCc2cccs2)o1,7,x,-2%,x,-53,
CC1(C)C[C@@H]2C[C@@](C)(CN2C(=O)c2ccccc2)C1,x,4,-5%,0.4,x,
Cc1nc2ccccn2c(=O)c1NC(=O)c1cccs1,x,-6,x,-0.8,x,
CC(=O)N1N=C(c2ccc3ccccc3c2)OC12CCCC2,x,1,12%,9.1,x,
CC/C(=N\NC(=S)Nc1cccc(C)c1)c1ccccc1,1,-2,u,16,x,
Cc1ccc(-c2cc(C(=O)N3CCCc4ccccc43)no2)cc1,7,76,42%,x,x,
COc1ccc(C(=O)Nc2ccc(O)c3ccccc23)cc1OC,x,-7,x,98*,x,
Cc1c(C#N)c(N)nc2c3c(sc12)NC(=O)CC3c1ccccc1 (centres undefined),-10,6,0%,-2.1,-13,
O=C(NNC(=O)c1ccc2ccccc2c1O)Nc1ccc(F)cc1,x,-13,x,-2.8,x,
CC(NC(=O)Cn1c(NCCO)nc2ccccc21)C1CC2CCC1C2 (centres undefined),21,-2,0%,-4.7,x,
N#C/C(=C\c1cc2c(cc1Br)OCO2)C(=O)NCC1CCCO1 (centres undefined),x,3,-1%,1.7,x,
Cc1ccnc(NS(=O)(=O)c2ccc(NC(=O)c3snnc3C)cc2)n1,x,1,x,-0.8,x,
CCOc1ccc(CONS(=O)(=O)c2ccc(NC(C)=O)cc2)cc1Cl,4,8,13%,-0.9,-6,
Cc1noc(C)c1C(=O)OCC(=O)c1cc(C)n(Cc2ccccc2Cl)c1C,-9,9,-4%,17,-2,
Cc1[nH]c2ccc(OCc3ccccc3)cc2c1CCN1C(=O)OC(C)(C)C1(C)O (centres undefined),-3,-4,1%,0.4,-32,
Cc1cc(NS(=O)(=O)c2ccc(NC(=O)COc3ccc(Cl)cc3Cl)cc2)no1,x,-14,x,-0.6,x,

# The list goes on.
SMILES,Arbovirus inh,Mtb betalactam,Mtb H37Rv,RecA intein inh,YopH PTP inh,others
O=C(O)C1CCCCC1C(=O)Nc1ccccc1Cl (centres undefined),4,-2,-4%,0.4,-36,
O=C(Nc1ccc(NC(=O)c2cccs2)cn1)c1ccco1,-10,-5,6%,-0.2,-50,
O=[n+]1cc(-c2ccc(F)cc2)n([O-])c2c1CCC2,0,-2,x,0.0,33,
Cc1cc(C)n(/N=C/c2cc([N+](=O)[O-])ccc2O)c(=O)c1,5,2,-2%,0.6,x,
O=C1C2C3CCC(C3)C2C(=O)N1CNc1ccc(F)cc1 (centres undefined),1,-29,4%,0.0,-11,
COc1ccc(CCNC(=O)NC23CC4CC(CC(C4)C2)C3)cc1,-10,100,13µM*,-3.3,4,
Cc1ccc(C(=O)N2CCCC(c3ccccc3)=N2)cc1,-13,15,1%,4.5,x,
O=C(O)CCC(=O)NCCc1cccc(Cl)c1,9,9,-6%,-1.6,x,
Cc1cccc(N2CCN(C(=S)NCc3ccco3)CC2)c1C,15,0,6%,6.6,-23,
C/C(=N/NS(=O)(=O)c1cccc([N+](=O)[O-])c1)c1ccncc1,x,1,x,-3.3,x,
CCCOc1ccc(-c2nn(-c3ccccc3)cc2/C=C2\SC(N)=NC2=O)cc1C,-14,2,11%,-2.4,-25,
COc1ccc(NC(=O)CSc2nc(C)c3c(c2C#N)CCCC3)cc1,3,-27,-9%,0.5,-7,
CC(=O)c1ccc(OCc2cc(C(=O)N(C)Cc3nc4c(C)cccc4[nH]3)no2)cc1,x,u,x,1.5,x,
COc1ccc2nc(NC(=O)CSc3nnc(-c4ccoc4C)n3C)sc2c1,3,3,1%,-0.6,-14,
CC(=O)N1CCc2cc(S(=O)(=O)CCC(=O)Nc3ccc(Cl)cc3F)ccc21,x,4,x,-1.9,x,
CNC(=O)NC(=O)CSc1nnc(C(F)(F)F)n1C,10,-13,-6%,0.1,-4,
O=C(c1cn(-c2ccccc2)nc1-c1ccccc1)n1nnc2ccccc21,-9,10,2%,5.1,-2,
COc1ccc(C(=O)NCC(=O)OCC(=O)Nc2c(C)n(C)n(-c3ccccc3)c2=O)cc1,4,-2,-2%,0.0,-2,
COc1ccccc1N(C)S(=O)(=O)c1ccc(C(=O)OCC(N)=O)cc1,4,-3,-4%,-1.0,x,
CCOC(=O)C1CCN(C(=O)C(=O)N2CCC(C(=O)OCC)CC2)CC1,2,2,-4%,0.4,-32,
COC(=O)c1cc(NC(=O)CSc2nc(C)cc(=O)[nH]2)cc(C(=O)OC)c1,9,0,-18%,1.5,-8,
CCCC1Cc2c(sc(NC(=S)NC(=O)c3ccccc3)c2C#N)CO1 (centres undefined),12,78,13%,1.5,-16,
CCC1Oc2ccccc2N(CC(=O)N2CCOCC2)C1=O (centres undefined),x,0,x,0.1,x,
Cc1cc(NC(=O)c2cc(-c3cccs3)on2)no1,-3,-10,-3%,-3.5,-33,
Oc1ccccc1N1CCN(CC(O)COCc2ccccc2Cl)CC1 (centres undefined),23,3,2%,-4.0,x,
Cc1csc(=N)n1-c1ccc(Cl)cc1,-12,5,3%,2.2,-1,Arbovirus inh repeat=-9
NC(=O)C1CCCN(Cc2c(C(=O)N3CCc4ccccc4C3)nc3ccc(Cl)cn23)C1 (centres undefined),x,u,x,1.5,x,
CCCCNC(=S)N1CCN(C(c2ccccc2)c2ccccc2)CC1,3,1,-13%,6.6,x,
COc1ccc(CNC(=O)COC(=O)Cc2ccc(Cl)cc2Cl)cc1,-2,10,-2%,6.1,-20,
CC(C)(C)c1ccc(C(=O)NNc2cc(N3CCOCC3)nc(N3CCOCC3)n2)cc1,3,4,1%,-0.6,x,
CC(=O)N1c2ccccc2NC2=C(C(=O)CC(C)(C)C2)C1c1cccn1C (centres undefined),4,-6,2%,-1.0,x,
Cc1ccc(S(=O)(=O)N2CCOCC2)cc1C(=O)NC1CCCCCC1,x,u,x,-2.4,x,
CN(C)CCCNC(=O)c1cc(Br)ccc1Cl,2,-3,-4%,-1.8,-15,
Cc1nc(Nc2ccccc2)c2oc3ccc(Cl)cc3c2n1,x,-4,x,-3.4,x,
Cc1ccc(S(=O)(=O)NCCc2nnc3ccc(SCC(=O)Nc4nc5ccccc5s4)nn23)cc1,9,15,5%,1.8,23,
COc1cc(OC)c(OC)cc1CN1CCN(Cc2ccc(SC)cc2)CC1,-8,0,8%,0.7,x,
O=C(CSc1nc2ccccc2c(=O)[nH]1)N1CCCCCC1,-7,-8,-11%,x,-2,
Cc1ccc(C)c(S(=O)(=O)N2CCCOC2CNC(=O)C(=O)NC2CC2)c1 (centres undefined),x,-11,x,2.6,x,
CCC(C)n1cnc2c(c1=O)c1nc3ccccc3nc1n2Cc1ccc2c(c1)OCO2 (centres undefined),-11,x,19%,13,-44,
CCc1ccccc1NC(=O)CSc1nnc([C@@H]2CCCN2C(=O)OC(C)(C)C)o1,10,76,-29%,0.6,-35,
COc1ccc2c(c1)N(S(=O)(=O)c1ccccc1)CCC2=O,4,0,11%,0.7,2,
CCNC(=O)NC(=O)COc1ccccc1C#N,-2,-1,3%,1.7,-52,
O=C(O)c1ccc(-c2ccccc2C(F)(F)F)o1,3,4,-3%,-0.8,-44,
O=C(NCCCc1ccncc1)C1CCC(=O)N(Cc2cccc(C(F)(F)F)c2)C1 (centres undefined),x,-8,x,-2.0,x,
Cc1nc2ccccc2c(=O)n1N(c1ccccc1)c1ccccc1,-9,6,3%,6.6,x,

# Screening data (PubChem)
